MARV entry inh: blocks Marburg virus binding to or entry into cells; Marburg virus pseudotyped entry inhibition, cell reporter; control for the full effect not named in the record; about a third of the inactives were read at about 46 µM; Potency, µM (top dose mostly 37.8 µM), without a hit: at the top dose activity change, negative = inhibition, actives largely listed as inhibitors; 300,000 compounds, 1.8% hits; active = well fitted inhibition curve with a large enough effect; inconclusive = small, poorly fitted or top-dose-only effect, or effect the other way; inactive = flat fitted curve, though single readings scatter; tested in HEK293 cells; about a fifth of its hits are not listed in these tables; also: % is scaled to controls: 0 for no effect and ±100 for the full control effect; luciferase read-out
StopGo reporter: FMDV 2A StopGo reporter, luciferase signal | 410,000 compounds, 1.2% hits | human cells with a luciferase reporter of 2A StopGo recoding; control for the full effect not named in the record | AID 1159524 | Potency, µM (top dose mostly 57.9 µM), inactives show at the highest dose signal change, negative = less light; active = well fitted falling curve with a large enough effect; inconclusive = small, poorly fitted or top-dose-only effect; inactive = no such curve, though single readings can be large or run the other way; tested in HEK293T cells; also: % is scaled to controls: 0 for no effect and ±100 for the full control effect; nearly all actives have a fitted effect of over 45% in size; luciferase light after 4 h
RE007 growth inh: less growth of the S. pombe RE007 Vpr strain; S. pombe RE007 Vpr strain, BacTiter-Glo ATP luminescence, 24 h; control for the full effect not named in the record; Potency, µM (top dose mostly 92.2 µM), inactives show at the highest dose activity change, negative = less growth; 360,000 compounds, 0.21% hits; active = well fitted falling curve with a large enough effect; inconclusive = small, poorly fitted or top-dose-only effect; inactive = no such curve, though single readings can be large or run the other way;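 also: % is scaled to controls: 0 for no effect and ±100 for the full control effect; nearly all actives have a fitted effect of over 50% in size; the assay follows cell death caused by Vpr and the record does not say whether a fall means rescue or toxicity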
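Fission yeast RE007 carrying one integrated HIV-1 vpr copy, seeded at OD 0.01 in PMG+AL medium with 23 nL pinned compound. Grown 24 h at 30 degrees; viability read by BacTiter-Glo luminescence after 5 min.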
Cruzain Triton: inhibitors of Trypanosoma cruzi cruzain with detergent. Potency, µM, inactives show max response, negative = inhibition, most hits filed as inhibitors. purified cruzain, Z-FR-AMC fluorescence, 0.01% Triton. P25779. 200,000 compounds, 0.43% hits. AID 1478; active = well fitted curve in the direction sought with a large enough effect; inconclusive = small, poorly fitted or top-dose-only effect, or another doubt; inactive = no such curve, though single readings can be large; an effect the other way counts as inactive or inconclusive;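 also: plate controls were neutral wells for no effect and buffer without enzyme for full effect; nearly all actives have a fitted effect of over 40% in size; top concentration of the series not given in the record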
Target sequence (P25779 123-467 limits assumed): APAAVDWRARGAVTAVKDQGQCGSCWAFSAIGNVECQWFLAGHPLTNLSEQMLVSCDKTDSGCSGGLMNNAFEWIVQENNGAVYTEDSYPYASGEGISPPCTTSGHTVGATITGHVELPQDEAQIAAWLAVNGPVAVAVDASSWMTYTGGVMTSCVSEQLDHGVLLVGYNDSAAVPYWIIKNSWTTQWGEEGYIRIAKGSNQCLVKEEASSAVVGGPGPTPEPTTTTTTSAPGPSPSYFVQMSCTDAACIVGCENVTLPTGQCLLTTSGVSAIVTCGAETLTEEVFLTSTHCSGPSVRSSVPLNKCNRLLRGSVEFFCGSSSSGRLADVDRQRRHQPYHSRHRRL
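Cysteine protease activity tested under reducing, mildly acidic conditions (100 mM sodium acetate pH 5.5, 5 mM DTT) plus 0.01% Triton X-100. Cruzain 1.5 nM; substrate Z-FR-AMC 2 uM; 15 min compound preincubation at room temperature.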
Cruzain inh noDet: cruzain (T. cruzi) inhibition without detergent. 200,000 compounds, 2.3% hits. purified cruzain, Z-FR-AMC fluorescence, no detergent. Potency, µM, for the others: max response, negative = inhibition, hits mostly inhibitors. P25779. AID 1476; active = well fitted curve in the direction sought with a large enough effect; inconclusive = small, poorly fitted or top-dose-only effect, or another doubt; inactive = no such curve, though single readings can be large; an effect the other way counts as inactive or inconclusive;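 also: plate controls were enzyme without inhibitor for no effect and buffer without enzyme for full effect; nearly all actives have a fitted effect of over 40% in size; top concentration of the series not given in the record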
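Detergent-free condition (0.00005% Triton X-100) in acetate buffer pH 5.5 with DTT. 1.5 nM enzyme and compound were pre-mixed 15 min, then 2 uM Z-FR-AMC substrate added; reaction progress from fluorescence change between first and third reads (60 s).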
NS1 inh: influenza NS1 inhibition; S. cerevisiae slowed by influenza A NS1, growth recovery by OD600; Potency, µM (doses to about 46.1 µM), for inactives: at the top dose activity, positive = more growth; 270,000 compounds, 0.4% hits; AID 2326; also: actives are rising curves; nearly all actives have a fitted effect of over 50% in size
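S. cerevisiae expressing influenza A NS1, grown in glucose, washed, then diluted 1:100 into pH 6.0 -URA galactose medium with 23 nl compound. Growth recovery read as OD600; NS1-free strain serves as control.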
SARS PLP yeast: blocks SARS-CoV papain-like protease in a yeast assay; Potency, µM (series often up to 32.9 µM), without a hit: top-dose activity, positive = growth rescue; AID 485353; 330,000 compounds, 0.19% hits; S. cerevisiae expressing SARS-CoV PLpro, growth rescue; control for the full effect not named in the record; also: 0% is about no effect; nearly all actives have a fitted effect of over 55% in size; growth read by luminescence after 48 h
Lassa entry inh: blocks Lassa virus binding to or entry into cells; Lassa virus pseudotype entry inhibition, cell reporter; control for the full effect not named in the record; Potency, µM (series often up to 37.9 µM), inactives show at the highest dose activity change, negative = inhibition, hits mostly inhibitors; 300,000 compounds, 1.2% hits; AID 540256; active means well fitted inhibition curve with a large enough effect; inconclusive means small, poorly fitted or top-dose-only effect, or effect the other way; inactive means flat fitted curve, though single readings scatter; tested in HEK293 cells; also: % is scaled to controls: 0 for no effect and ±100 for the full control effect; nearly all actives have a fitted effect of over 50% in size; luciferase read-out
* hit, by the source's call; u = inconclusive; x = not tested or not shown; [ ] = another dose, or the depositor's remark. Unless noted, calls follow the shape of the dose curve; as a rule, active means well fitted rising curve with a large enough effect; inconclusive means small, poorly fitted or top-dose-only effect; inactive means no such curve, though single readings can be large or run the other way. Potency is read from the fitted curve at half-maximal effect.

SMILES	MARV entry inh	StopGo reporter	RE007 growth inh	Cruzain Triton	Cruzain inh noDet	NS1 inh	SARS PLP yeast	Lassa entry inh
O=C1CC(NS(=O)(=O)c2cc(F)ccc2F)CN1c1ccc2c(c1)OCCO2 (stereo not given)	0.6%	-5.0%	10.2%	x	x	x	1.1%	1.7%
N#C/C(=C\c1cn(CCOc2ccccc2)c2ccccc12)C(=O)NCc1cccs1	-7.6%	-22.3%	x	-2.7%	u	14.4%	-11.9%	-10.5%
Cc1ccc(-c2nc(SCc3ccc(Br)cc3)n3[nH]c(=O)cc3n2)cc1	x	-22.7%	x	1.2%	-0.8%	x	x	14.6%[46.1 µM]
CN(CC(=O)Nc1ccc(Cl)c(C(F)(F)F)c1)C(=O)CC1Sc2ccccc2NC1=O (stereo not given)	-28.9%	-26.2%	16.4%	x	x	0.3%	-0.3%	u
O=C(N/C(=C\c1ccccc1)C(=O)N1CCN(CCO)CC1)c1ccccc1	u	-19.5%	-4.7%	-3.2%	-6.1%	-0.8%	-5.3%	16.1%
N#CC(C#N)=C/C(C#N)=C(/N)N1CCN(c2ccc(Cl)cc2)CC1	-19.4%	17.8µM*	9.9%	-10.5%	-3.2%	-7.4%	-1.7%	9.5%
CCN1CCSc2ccc(C(=O)NCc3ccccc3C)cc21	x	20.6%	-1.4%	x	x	-30.2%	-15.8%	x
CCN(CC(=O)Nc1ccccc1OC)C(=O)/C=C/c1cccs1	7.5%[46.1 µM]	-6.7%	8.0%	x	x	x	-4.5%	7.7%
Cc1ccnc(NC(=O)c2cc(-c3ccc(Cl)s3)nc3ccccc23)c1	u	2.6%	-5.4%	x	x	x	5.6%	-16.5%
c1ccc(-c2noc(C3CCC3)n2)nc1	-0.1%	54.4%[activator]	-13.6%	x	x	6.3%	0.4%	u
CCC(C)NC(=O)CN(c1cc(C)ccc1OC)S(C)(=O)=O (stereo not given)	-0.6%	x	10.8%	1.2%	2.9%	-0.2%	-0.1%	14.4%
O=C1CC(c2nc3ccccc3n2Cc2c(F)cccc2Cl)CN1c1cccc(C(F)(F)F)c1 (stereo not given)	-1.7%[46.1 µM]	u	x	-0.2%	-5.3%	x	x	u
CCS(=O)(=O)n1nc(-c2ccco2)nc1NCc1ccc(C(C)C)cc1	25.4%[46.1 µM]	-17.0%	x	-9.8%	u	x	x	26.3%[46.1 µM]
CC1Sc2ccc(S(=O)(=O)N3CCC(C(=O)N4CCN(C)CC4)CC3)cc2NC1=O (stereo not given)	16.7%[46.1 µM]	-4.9%	9.3%	x	x	-3.4%	0.8%	-12.2%[46.1 µM]
Cc1ccc(C(=O)Nc2cccc(C(F)(F)F)c2)cc1Nc1ncnc2nc[nH]c12	x	u	15.6%	x	x	7.5%	-4.0%	x
COC(=O)C1C(c2ccccc2)C(C(=O)N2CCOCC2)C1c1ccccc1 (stereo not given)	1.2%	-15.4%	4.5%	1.1%	-7.4%	2.5%	3.0%	-0.5%
CCCOc1ccc(C2=NNC(c3cccs3)=Nc3ccc(OC)cc32)cc1	u	58.5%[activator]	10.4%	-3.6%	-25.2%	u	-26.3%	6.4%
O=C(O)c1cc(-c2cccs2)nn1-c1ccc(F)cc1	-15.6%[46.1 µM]	3.0%	5.6%	x	x	6.4%	-3.8%	-3.3%[46.1 µM]
O=C(NNS(=O)(=O)c1ccc2ccccc2c1)c1cc(-c2ccccn2)nc2ccccc12	u	-8.2%	9.1%	-7.3%	-29.2%	26.2%	6.9%	-30.2%
COc1ccc(OCCOc2ccc(C)nc2[N+](=O)[O-])cc1	u	19.0%	-4.5%	-4.5%	0.5%	-9.0%	-19.2%	14.8%
O=C(O)C(=Cc1cccc([N+](=O)[O-])c1)c1ccc(Cl)cc1	23.8%	-4.5%	15.0%	x	x	x	x	-0.7%
COc1ccc(NC(=O)CSc2nc(N)c(NC(=O)c3ccccc3F)c(=O)[nH]2)cc1	2.1%	-18.9%	-6.6%	x	x	10.7%	0.7%	-16.8%
Cc1ccc(NC(=S)Nc2ccc(S(=O)(=O)Nc3ncccn3)cc2)c(C)c1	x	-10.6%	3.1%	x	x	2.1%	-0.1%	x
Cc1c(C=O)c2ccccn2c1C(=O)c1ccc(F)cc1	x	-18.9%	-15.1%	x	x	-59.0%	-1.0%	x
O=C(NN1C(=O)/C(=C/c2ccc(O)cc2)SC1=S)c1cccc(O)c1	x	-2.8%	3.2%	x	x	-0.8%	4.5%	x
Cc1ccc(CN2C(=O)C(C)(C)Oc3ccc(C(=O)N4CCCCC4)cc32)cc1	-2.6%[46.1 µM]	-3.4%	15.6%	-4.9%	u	-16.6%	-1.1%	-4.6%
C/C(=N/OCc1ccc(Br)cc1)c1ccccn1	u	-11.4%	-20.5%	x	x	x	18.9%	u
Cc1nn(C)c(Oc2ccccc2)c1CCNC(=O)CC(C)C	-18.1%[46.1 µM]	-12.9%	-12.2%	x	x	0.4%	1.5%	-9.1%
COC(=O)CN1C(=O)C(O)=C(C(C)=O)C1c1ccc([N+](=O)[O-])cc1 (stereo not given)	u	6.9%	-12.6%	-2.1%	0.5%	-2.1%	-2.7%	3.4%
O=C(c1cc2ccccc2oc1=O)N(Cc1cccs1)CC1CCCO1 (stereo not given)	-17.7%[46.1 µM]	38.4%[activator]	10.9%	x	x	1.4%	-1.2%	-5.5%[46.1 µM]
O=C(COC(=O)[C@H](Cc1c[nH]c2ccccc12)NC(=O)c1ccc(Cl)cc1)Nc1ccc2c(c1)OCO2	-7.1%	48.3%[activator]	7.4%	3.55µM*	20µM*	-14.2%	14.7%	21.8%
COc1ccc(NCc2nnc3n2CCCCC3)c(OC)c1	x	-6.8%	x	1.1%	-9.9%	x	x	-2.7%[46.1 µM]
Oc1ccc(C=Nc2ccc3ncccc3c2)c(O)c1	-2.8%	x	x	-9.0%	15.8µM*	u	-1.8%	x
CC(C)NC(=O)NC(=O)COC(=O)c1cccc(S(=O)(=O)N2CCCCC2)c1	2.6%	-4.7%	2.7%	-2.3%	16.7%	2.5%	27.4%	0.9%
Cc1cccc(CCNC(=O)c2cc3c(=O)n(C)c4ccccc4c3n2C)c1	9.7%[46.1 µM]	u	x	0.3%	-6.1%	x	x	16.5%[46.1 µM]
CCCn1c(CCCNC(=O)c2ccccc2OC)nc2ccccc21	18.7%[46.1 µM]	-17.3%	x	8.0%	12.0%	x	x	0.3%[46.1 µM]
CC(=O)NCCOc1ccc2oc3ccccc3c2c1	u	44.4%[activator]	-13.7%	5.0%	0.3%	-56.5%	x	u
Cn1nnc2c(N3CCN(c4cccc(C(F)(F)F)c4)CC3)ncnc21	x	-19.0%	x	-0.4%	-3.2%	x	x	u
O=C(OCCC12CC3CC(CC(C3)C1)C2)c1ccc(NCc2cc(O)ccc2O)cc1	1.78µM*	u	22.3%	x	x	x	x	1.26µM*
Nc1cccc2c1C(=O)N(C(=O)/C=C/c1ccc(F)cc1)C2=O	3.16µM*	39.8µM*	u	x	x	x	-0.5%	11.2µM*
COC(=O)c1ccc(OC)c(CN2CCCN(Cc3ccc(C)cc3)S2(=O)=O)c1	x	4.4%	x	-6.0%	-2.1%	x	x	2.0%[46.1 µM]
COc1ccc(NC2c3ncccc3C(=O)N2Cc2ccccc2)c(OC)c1 (stereo not given)	7.6%	10.4%	5.2%	-8.8%	-6.3%	13.2%	-3.0%	11.6%
CCn1c(=O)sc2cc(NS(=O)(=O)c3ccc(C)cc3)ccc21	-27.4%[46.1 µM]	60.7%[activator]	x	-7.0%	-19.8%	x	x	u
O=C(Nc1csc(Cc2c(Cl)cccc2Cl)n1)NN1CCOCC1	-13.0%[46.1 µM]	-19.8%	2.3%	x	x	-2.1%	0.1%	-23.3%[46.1 µM]
CCOc1ccccc1C(=O)N(C)Cc1cc2ccccc2[nH]c1=O	1.9%	0.0%	32.8%	-1.3%	-1.3%	-3.8%	-2.6%	12.7%
CC(C)(C)c1cc(C(F)(F)F)n2ncc(-c3ccccc3)c2n1	20.4%[46.1 µM]	-20.1%	-3.6%	x	x	x	0.7%	17.5%
O=C(NCc1cccc(Cl)c1)c1ccc(-c2csnn2)cc1	u	-2.1%	-7.3%	x	x	-2.5%	-2.0%	-15.3%[46.1 µM]
CCn1c(/C(C#N)=C/c2ccccc2Cl)nc2ccccc21	x	-17.5%	x	0.1%	-2.2%	x	x	-11.9%[46.1 µM]
COCCn1c(=NC(=O)c2sc3ccccc3c2Cl)sc2cc(S(N)(=O)=O)ccc21	3.6%	u	-7.4%	-14.6%	5.8%	8.4%	1.0%	2.3%
Cc1ccc(-c2csc(NC(=O)CCNC(=O)c3ccc(Cl)cc3)n2)cc1	u	-24.7%	4.1%	x	x	2.1%	0.6%	u
Cc1ccc(-c2noc(CCC(=O)Nc3cccc(C#N)c3)n2)cc1	-6.1%	-13.3%	-8.7%	-6.2%	-6.9%	-49.4%	-9.6%	-20.3%
O=C(c1ccc(Cl)cc1)N1CCOc2ccccc21	-1.2%[46.1 µM]	-19.9%	-4.6%	x	x	-3.9%	-0.5%	-14.2%[46.1 µM]
CS(=O)(=O)N(Cc1ccccc1Cl)c1ccc(C(=O)N2CCCC2)cc1	18.8%[46.1 µM]	-13.6%	2.7%	x	x	-18.3%	6.6%	-8.6%[46.1 µM]
CN1c2ccccc2Oc2nnc(N3CCN(Cc4ccccc4)CC3)cc21	u	10.4%	u	x	x	-2.2%	-0.4%	-1.6%[46.1 µM]
OCCN(CCO)c1ccc(C(c2ccccc2Cl)c2ccc(N(CCO)CCO)cc2Cl)c(Cl)c1	-27.1%	39.8µM*	22.1%	-8.9%	u	u	16.1%	11.2µM*
O=C1CN=C(c2cccs2)c2c(sc3c2CCCC3)N1	-16.4%	-11.9%	5.5%	3.8%	-0.3%	-27.3%	-1.7%	-24.3%
C=CCn1c(O)c(N=Nc2ccccc2C)c2ccccc21	-6.9%	-16.0%	5.7%	x	x	-1.4%	-1.7%	-17.0%[46.1 µM]

Assay outcomes deposited in PubChem BioAssay by National Center for Advancing Translational Sciences (NCATS).
